Biofilm kill mix = mixtures killing C. albicans biofilm | C. albicans biofilm persisters + clotrimazole, fluorescence viability; primary screen in compound mixtures of four per well | inhibition, % at 7.6 µM | 120,000 compounds, 0.02% hits | AID 1242;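 active means inhibition above 30.3% in the primary screen of four-compound pools, then above 30% when the compound was retested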;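 further: compounds exposed to preformed 24 h biofilms for 48 h; the number belongs to the whole pool; some results filed as inactive read as strong as hits; inactives centre near 12; 0% = biofilm with clotrimazole alone and 100% = kill control; retested singly at about 60 µM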
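Test system: C. albicans CAF4-2 wild-type biofilms; buffer or medium: RPMI/MOPS medium, pH 7.0; schedule: 24 h biofilm formation, then 48 h compound exposure, 37 °C; detection: Alamar Blue fluorescence; measure: percent inhibition of biofilm viability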
The depositor's hits bear a star. Only part of the results is shown; the hit share may differ from the screen's.

SMILES	Biofilm kill mix
CCC1=C(OC(=O)N(CC)CC)N2C(=O)OC(=NCC(=O)OC)[C@]2(Cc2ccccc2)[C@H]2C1=CC[C@H]1C(=O)NC(=O)[C@H]12	21
C/C(CC(=O)Nc1ccc(Cl)cc1Cl)=N\NC(=O)C(=O)NCCO	-14
CN(CC(=O)Nc1ccc(F)cc1)C(=O)COc1ccc([N+](=O)[O-])cc1Cl	16
COc1cc2c(cc1OC)C(C)=NC1(CCCCC1)C2	21
Cn1ccnc1C1CCCCN1Cc1nc(-c2ccc3c(c2)OCO3)no1 (stereo not drawn)	-11
Cc1ccc(NC(=O)C(C)N=C2NS(=O)(=O)c3ccccc32)cc1 (stereo not drawn)	24
O=C1/C(=C/c2ccc(F)cc2)Oc2cc(OC(=O)N3CCOCC3)ccc21	14
O=C(NC(Nc1nc2ccc([N+](=O)[O-])cc2s1)(C(F)(F)F)C(F)(F)F)c1ccccc1Cl	21
Cc1cc(C)nc(N/N=C/c2ccccc2OCc2ccccc2)n1	-11
Cn1cc(CNCc2cnc3ccccn23)c(-c2ccc(Oc3ccccc3)cc2)n1	5
COc1ccc(-c2nnc3ccc(SCC(=O)Nc4cc(C)on4)nn23)cc1	23
O=C(O)CCc1ccc(-c2cccs2)n1CCc1ccccc1	7

An excerpt of the results above, as a working copy:
SMILES	Biofilm kill mix
CCC1=C(OC(=O)N(CC)CC)N2C(=O)OC(=NCC(=O)OC)[C@]2(Cc2ccccc2)[C@H]2C1=CC[C@H]1C(=O)NC(=O)[C@H]12	21
C/C(CC(=O)Nc1ccc(Cl)cc1Cl)=N\NC(=O)C(=O)NCCO	-14
CN(CC(=O)Nc1ccc(F)cc1)C(=O)COc1ccc([N+](=O)[O-])cc1Cl	16
COc1cc2c(cc1OC)C(C)=NC1(CCCCC1)C2	21
Cn1ccnc1C1CCCCN1Cc1nc(-c2ccc3c(c2)OCO3)no1 (stereo not drawn)	-11
Cc1ccc(NC(=O)C(C)N=C2NS(=O)(=O)c3ccccc32)cc1 (stereo not drawn)	24

Some values from the entries so far:
Biofilm kill mix, O=C(NC(Nc1nc2ccc([N+](=O)[O-])cc2s1)(C(F)(F)F)C(F)(F)F)c1ccccc1Cl stands at 21
Biofilm kill mix, C/C(CC(=O)Nc1ccc(Cl)cc1Cl)=N\NC(=O)C(=O)NCCO stands at -14
Biofilm kill mix, O=C1/C(=C/c2ccc(F)cc2)Oc2cc(OC(=O)N3CCOCC3)ccc21 stands at 14
Biofilm kill mix, Cc1ccc(NC(=O)C(C)N=C2NS(=O)(=O)c3ccccc32)cc1 (stereo not drawn) stands at 24

More structures:
SMILES	Biofilm kill mix
CC(=O)Nc1cn(-c2ccccc2)nc1-c1ccccc1	25
O=C1OC(=O)C2C1[C@@H]1CC[C@H]2O1 (stereo partly drawn)	-5
Cc1nc(-c2noc(-c3ccccc3Cl)n2)c(C(F)(F)F)o1	20
CC(=O)NS(=O)(=O)c1ccc(NC(=O)/C=C/c2ccco2)cc1	-5
C=CCNC(=O)N1CCC(CO)(Cc2ccc(Cl)cc2)CC1	8
O=C(Cc1ccc(Br)cc1)Nc1cccc(Cl)c1	17
COc1ccc2c(CC(=O)NCCN3C(=O)S/C(=C\c4cccnc4)C3=O)coc2c1	24
O=C(Cc1ccccc1)Nn1c(O)c(/C=C2\C=Nc3ccccc32)sc1=S	14
Nc1nc(-c2ccccn2)nc(N)c1Cc1ccc(Cl)cc1Cl	22
O=C(O)c1cc(/C=C/c2ccc(N3CCOCC3)cc2)nc2ccccc12	-6
CCC1=Nc2cc(C(=O)NCc3ccco3)ccc2Sc2ccc(Cl)cc21	11
NC(N)=Nc1nc2ccc(Br)cc2c(=O)[nH]1	33
OC1(c2cccs2)CN(c2ccc(Br)cc2)C2=[N+]1CCCS2 (stereo not drawn)	7
N/C(=N\OC(=O)c1cc(-c2ccccc2)nc2ccccc12)c1ccccn1	5
O=C(CN1C(=O)C2CC=CCC2C1=O)Nc1ccc(S(=O)(=O)Nc2ncccn2)cc1 (stereo not drawn)	17
Cc1nc(C)n(CC(=O)c2ccc(Cl)cc2Cl)n1	22
Cc1ccc(C(=O)N/C(=C\c2ccc(-c3ccc(Br)cc3)o2)C(=O)NC2CCS(=O)(=O)C2)cc1 (stereo not drawn)	15
CCCc1[nH]n(-c2ccc(F)cc2)c(=O)c1C=Nc1ccc(C)cc1	16
Cc1[nH]c2ccc(F)cc2c1CCN(Cc1ccncc1)C(=S)Nc1ccc(F)cc1	15
CCN(CC)S(=O)(=O)c1ccc(N2CCOCC2)c(NC(=O)CC23CC4CC(CC(Br)(C4)C2)C3)c1	7
CCOC(=O)c1sc(NC(=O)CN2C(=O)NC3(CC(C)CC(C)(C)C3)C2=O)c(C(=O)OCC)c1C (stereo not drawn)	17
O=C(COC(=O)c1ccc(O)cc1)NCc1ccc2c(c1)OCO2	9
Cc1cc(C#N)c(C)c(SCc2[nH]nc3c2C(c2ccccc2)C(C#N)=C(N)O3)n1 (stereo not drawn)	8
Cc1cccc(C)c1NCc1n[nH]c(=S)n1-c1ccccc1	13

Rewritten comma-delimited: six of the compounds above
SMILES,Biofilm kill mix
Cc1ccc(C(=O)N/C(=C\c2ccc(-c3ccc(Br)cc3)o2)C(=O)NC2CCS(=O)(=O)C2)cc1 (stereo not drawn),15
CCCc1[nH]n(-c2ccc(F)cc2)c(=O)c1C=Nc1ccc(C)cc1,16
Cc1[nH]c2ccc(F)cc2c1CCN(Cc1ccncc1)C(=S)Nc1ccc(F)cc1,15
CCN(CC)S(=O)(=O)c1ccc(N2CCOCC2)c(NC(=O)CC23CC4CC(CC(Br)(C4)C2)C3)c1,7
CCOC(=O)c1sc(NC(=O)CN2C(=O)NC3(CC(C)CC(C)(C)C3)C2=O)c(C(=O)OCC)c1C (stereo not drawn),17
O=C(COC(=O)c1ccc(O)cc1)NCc1ccc2c(c1)OCO2,9

Next part
SMILES	Biofilm kill mix
COc1ccccc1C(=O)NNC(=S)NC(=O)c1cc(OC)c(OC)c(OC)c1	12
CN1CCc2ccccc2CC1=O	21
Cc1nc2ccccc2n1C(=O)c1ccc(Cl)cc1[N+](=O)[O-]	0
Cc1cccc(N(Cc2ccccc2)C(=O)CCl)c1	12
Cc1occc1C(=O)N/N=C/c1sc(N2CCOCC2)nc1-c1ccccc1	8
Cc1ccccc1OCC(=O)NNC(=O)Nc1ccccc1	5
Cc1ccc(NC(=O)COC(=O)c2ccccc2Cl)cc1S(=O)(=O)N(C)C	12
O=C(CCNC(=O)c1ccccc1)Nc1cccnc1	11
CCOC(=O)C1CCCN(C(=O)c2cc(-c3ccc(F)cc3)nc3ccccc23)C1 (stereo not drawn)	7
Cc1ccc2c(c1)sc(=NC(=O)C1CC1)n2C	10
CCOC(=O)c1cncc(C#CCO)c1	9
CC(=O)N1CCC(N(CCN2CCOCC2)C(=S)Nc2cccc(C)c2C)CC1	19
CCCCCC(=O)N/N=C/c1ccco1	2
Cc1cc(-c2cccs2)c(C#N)c(=S)[nH]1	9
O=[N+]([O-])c1cc(Cl)ccc1-c1nc(-c2ccncc2)no1	5
Cn1c(=O)c2c([nH]c(OCc3ccc(Cl)cc3Cl)[n+]2Cc2ccc(F)cc2)n(C)c1=O	17
O=[N+]([O-])c1ccc(NNC(=S)Nc2ccc(F)cc2)cc1	5
Cc1noc(NS(=O)(=O)c2ccc(NC(=O)c3ccc(N4C(=O)c5ccccc5C4=O)cc3)cc2)c1C	13
CCOC(=O)c1ccc(NC(=S)NCCc2ccc(F)cc2)cc1	13
COc1ccc(/C=C(\C#N)C(=O)OC2CCOC2=O)cc1 (stereo not drawn)	11
O=C(N/N=C1\NC(=O)C(CO)(CO)S1)c1ccccc1	13
C(=N\n1c2ccccc2c2ccccc21)/c1ccccc1	17
COc1ccc(-c2cc(C(=O)NCc3cccs3)no2)cc1	13
O=c1c(Br)c(N2CCOCC2)cnn1-c1ccccc1	33

Exported with each value named: entries from further up
molecule: CCOC(=O)c1ccc(NC(=S)NCCc2ccc(F)cc2)cc1
  Biofilm kill mix: 13
molecule: O=[N+]([O-])c1ccc(NNC(=S)Nc2ccc(F)cc2)cc1
  Biofilm kill mix: 5
molecule: O=[N+]([O-])c1cc(Cl)ccc1-c1nc(-c2ccncc2)no1
  Biofilm kill mix: 5
molecule: COc1ccc(-c2cc(C(=O)NCc3cccs3)no2)cc1
  Biofilm kill mix: 13

Continued.
SMILES	Biofilm kill mix
CCOC(=S)SCC(=O)N1CCc2cc(OC)c(OC)cc2C1C1C(=O)CC(C)(C)CC1=O (stereo not drawn)	17
CCN1C=C(C(=O)OC)C(c2cccc(OC)c2OC)C(C(=O)OC)=C1	4
Cc1ccccc1NC(=S)N(CCN(C)C)C(C)c1ccco1 (stereo not drawn)	15
CC(=O)C1=C(O)C(=O)N(C2CCCCC2)C1c1ccccc1 (stereo not drawn)	8
O=C1CN(Cc2cc(=O)oc3cc4c(cc23)CCC4)CCN1	8
CCOC(=O)c1c(-c2ccccc2)csc1NC(=O)COc1ccc2c(C)cc(=O)oc2c1	12
COc1cc(C=C2C(=O)c3ccccc3C2=O)ccc1O	22
N/C(=N/OS(=O)(=O)c1ccc([N+](=O)[O-])cc1)c1ccncc1	10
COC(=O)C1=C(Nc2cc(Cl)cc(Cl)c2)CSC1	27
Cc1ccc(S(=O)(=O)N2CC=C(C(=O)NCc3ccc(F)cc3)CC2)cc1	18
O=C(CCN1C(=O)/C(=C/C=C/c2ccccc2)SC1=S)Nc1nc2ccccc2s1	17
O=C(CSc1ccccc1C(=O)O)NC12CC3CC(CC(C3)C1)C2	28
COc1ccc(OC)c(NC(=O)CSc2nnc(-c3cccnc3)s2)c1	3
Cc1ccc(C)c(NC(=O)C(=O)NCCCN2CCOCC2)c1	2
CCOC(=O)c1sc(NC(=O)c2ccccc2F)c(C(N)=O)c1C	22
CCC(CC)NC(=O)Nc1ccccc1C(F)(F)F	23
CCN(CC)S(=O)(=O)c1cccc(C(=O)N/N=C2\CCCC(=O)C2)c1	9
O=C(O)Cn1ncc2ccccc2c1=O	2
O=C(N/N=C/c1ccc2c(c1)OCO2)c1cc(-c2ccc(F)cc2)nc2ccccc12	21
CCCC(=O)Nc1ccc(Cl)c(NC(=O)c2cccc(OC)c2)c1	8
CCOc1ccc(CC2c3cc(OCC)c(OCC)cc3CCN2C(=O)CN2CCN(C)CC2)cc1OCC (stereo not drawn)	17
CN(C)CCCNc1ncnc2sc(-c3ccccc3)cc12	22
Cc1cc(C)nc(SCC(=O)NNC(=O)c2cccs2)n1	5
O=C(NCC1CCCO1)C1CCCN1C(=O)Nc1ccc(Cl)cc1 (stereo not drawn)	17
CCCCc1cn([C@@H](CCCCNC(=O)OC(C)(C)C)C(=O)N2CCN(C(=O)OC(C)(C)C)CC2)nn1	20
O=C(COC(=O)c1cnc(Cl)c(Cl)c1)NCc1ccco1	20
CC(=O)Nc1ccc(N2C(=O)CC(Sc3nc4ccccc4s3)C2=O)cc1 (stereo not drawn)	-2
COc1ccc(-n2cc(CNCc3cnc4ccccn34)c(-c3cccc(F)c3)n2)cc1	12
CCOC(=O)c1cn(Cc2ccc(Br)cc2)nn1	3
Clc1ccc(CSc2ncn(-c3ccccc3)n2)cc1	10
CCC(C)(C(=O)NC1CCCC1)N(C)C(=O)Cc1c[nH]c2ccccc12 (stereo not drawn)	19
O=C(NCc1ccncc1)NC1CCCCC1	7
NC(N)=NNC(=O)c1ccccc1Cl	5
NS(=O)(=O)c1ccc(NC(=S)NCc2cccs2)cc1	4
Cc1ccc2oc(=O)n(CC(=O)OCCC(C)C)c2c1	25
O=C(CSc1nnnn1-c1ccc(F)cc1)NCc1cccs1	15
O=C(Cn1cc(/C=N/NC(=O)c2ccccc2Br)c2ccccc21)Nc1ccc(F)cc1	6
O=C(COc1ccc2ccccc2c1Br)NCc1ccccn1	13
CC(C(=O)NCCS(=O)(=O)c1ccc(Cl)cc1)S(=O)(=O)c1ccccc1 (stereo not drawn)	10
COc1ccc2c(COC(=O)CNC(=O)C34CC5CC(CC(C5)C3)C4)cc(=O)oc2c1	12
CC[C@H](C)[C@H](NC(N)=O)C(=O)Nc1ccccc1F	16
Cc1cccc(NC(=S)NCc2ccncc2)c1C	12
O=C1c2ccccc2NC(c2ccccc2Br)N1CCCN1CCOCC1 (stereo not drawn)	11
CC(C)(C)C(=O)Nc1ccc(N2CCN(S(C)(=O)=O)CC2)cc1	6
COc1cc(/C=N/OCC(=O)Nc2cc(C)on2)ccc1OCc1ccccc1	9
CCN(CC)S(=O)(=O)c1cccc(-n2c(O)c(C=Nc3ccccc3C(=O)O)c3ccccc3c2=O)c1	22
COC(=O)c1ccc(NC(=O)c2ccc(NC(=O)C3CCCO3)cc2)cc1 (stereo not drawn)	19
O=C(OCc1cncs1)c1ccccc1Cl	12
Cc1ccc(Cn2cccc(NC(=O)CCC3CCCC3)c2=O)cc1	18
Cc1sc(NC(=O)COc2ccccc2)c(C#N)c1C	11

Screening data from PubChem.
